Ecoli rRNA inh – inhibits bacterial ribosomal RNA function over humanized ribosomes; GFP signal change (wild-type ribosome), % (concentration not given with the values); E. coli WT GFP vs humanized-ribosome RFP mutants, fluorescence, 24 h; stronger effect = lower value; DMSO median 0, no signal -100; actives 1.6% (n = 350,000); AID 720706;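 active = significant combined selectivity score with lowered wild-type GFP, culture density cut under 30%, mutant RFP and density less affected; inactive = any of these conditions unmet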; also: one replicate is shown; some compounds called inactive have numbers as strong as hits
Ecoli rRNA inh OD600 – also measured in Ecoli rRNA inh; calls as there; OD600 change, %; measured here: OD600 growth;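 optical density of the mix in the first replicate; 0 = DMSO median and -100 = no signal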
Ecoli rRNA inh RFP – recorded beside Ecoli rRNA inh, whose call it bears; RFP signal change, %; measured here: RFP humanized mutant strains;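 first replicate; 0 = DMSO median and -100 = no signal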
* = called active by the depositor; & = joins results of further samples. These rows are one share of the data (hit frequency here may not be typical).

SMILES	Ecoli rRNA inh	Ecoli rRNA inh OD600	Ecoli rRNA inh RFP
C[C@H](CO)N1C[C@H](C)[C@@H](CN(C)S(=O)(=O)c2cccs2)Oc2ccc(NS(C)(=O)=O)cc2C1=O	4	15	-1.1
CNC(=O)C[C@@H]1CC[C@@H]2[C@H](COC[C@H](O)CN2C(=O)Nc2cccc(OC)c2)O1	4	8	-0.8
COCCNC(=S)N(C)[C@H]1C[C@H]2c3cc(Oc4ccccc4C)ccc3CCN2C(=O)[C@H]1[C@H](C)O	-21	-65	16
CCCCOCC1CN(CCCC)S(=O)(=O)c2c(NCc3cc(OC)c(OC)c(OC)c3)cccc2O1 (stereo unspecified)	-1	3	0.2
Cc1ccc(S(=O)(=O)N2C[C@H]3[C@H]4C(=O)N(c5ccccc5)C(=O)[C@H]4CC(=O)[C@H]3[C@@H]2c2ccccc2F)cc1	25	10	4.6
C[C@H]1CN([C@@H](C)CO)C(=O)c2cc(NS(=O)(=O)c3ccc(Cl)cc3)ccc2O[C@H]1CN(C)Cc1ccc(C(=O)O)cc1	3	8	-0.8
COc1cc(C(=O)C(=O)N2CCN(c3ccc(C)cc3)CC2)cc2ccccc12	-27	-34	0.0
Cc1noc(C)c1S(=O)(=O)Nc1ccc2c(c1)CC(=O)N([C@H](C)CO)C[C@@H](C)[C@H](CN(C)C(=O)Nc1cccc3ccccc13)O2	0	2	2.1
CN(C)CCCNC(=O)C[C@H]1CC[C@H]2[C@H](COc3ccc(NC(=O)C4CCC4)cc3C(=O)N2C)O1	-1	6	-2.7
C[C@H](O)C#Cc1ccc2c(c1)O[C@@H](CN(C)C(=O)CC1CC1)[C@@H](C)CN([C@H](C)CO)S2(=O)=O	0	12	-4.8
C[C@@H]1CN([C@H](C)CO)C(=O)c2cccc(NC(=O)c3ccncc3)c2O[C@@H]1CN(C)Cc1ccc(Oc2ccccc2)cc1	-5	-24	-0.1
C[C@@H]1CN([C@@H](C)CO)C(=O)c2cccc(NC(=O)c3ccc(-c4nccs4)cc3)c2O[C@@H]1CN(C)Cc1ccc(C(=O)O)cc1	-1	5	-2.3
CCNC(=O)N(C)[C@H]1C[C@H]2c3[nH]c4c(-c5ccc6c(c5)OCO6)cccc4c3CCN2C(=O)[C@H]1[C@H](C)O	5	-2	1.0
CC(=O)N(C)C[C@@H]1Oc2cc(C#CCN(C)C)ccc2S(=O)(=O)N([C@@H](C)CO)C[C@H]1C	-1	-2	0.7
CCOC(=O)C1CSCCS(=O)(=O)N1Cc1cccc(Cl)c1 (stereo unspecified)	-5	2	12
CC(C)NC(=O)Nc1ccc2c(c1)C(=O)N([C@H](C)CO)C[C@H](C)[C@H](CN(C)C)O2	0	7	-1.0
C/C=C/c1ccc([C@H]2[C@H](CO)N(C(C)=O)[C@H]2CNC(=O)CC2CC2)cc1	1	5	3.1
CCC(=O)N(C)C[C@H]1Oc2ncc(C#Cc3ccccc3)cc2C(=O)N([C@@H](C)CO)C[C@H]1C	0	-7	-2.0
C[C@H](CO)N1C[C@H](C)[C@H](CN(C)S(C)(=O)=O)OCCCC[C@H](C)Oc2ccc(NS(=O)(=O)c3cn(C)cn3)cc2C1=O	-1	5	-3.2
CCS(=O)(=O)N[C@H]1C=C[C@@H](CC(=O)Nc2ccc(-c3ccccc3)cc2)O[C@@H]1CO	-2	-3	-0.6

An excerpt from above, showing only Ecoli rRNA inh OD600:
smiles	Ecoli rRNA inh OD600
COCCNC(=S)N(C)[C@H]1C[C@H]2c3cc(Oc4ccccc4C)ccc3CCN2C(=O)[C@H]1[C@H](C)O	-65
CCC(=O)N(C)C[C@H]1Oc2ncc(C#Cc3ccccc3)cc2C(=O)N([C@@H](C)CO)C[C@H]1C	-7

New compounds follow:
SMILES	Ecoli rRNA inh	Ecoli rRNA inh OD600	Ecoli rRNA inh RFP
CCC(C)C(CO)NCCCn1cnc2c(SC)ncnc21 (stereo unspecified)	13	7	-7.2
C[C@H](CO)N1C[C@H](C)[C@@H](CN(C)S(=O)(=O)c2cn(C)cn2)Oc2cc(C#Cc3ccccc3)ccc2S1(=O)=O	-3	-8	1.5
C[C@@H]1CN([C@H](C)CO)S(=O)(=O)c2ccc(-c3cccnc3)cc2O[C@H]1CN(C)Cc1cncnc1	-2	-1	-2.6
CCC(=O)N1C[C@@H](O)COC[C@H]2O[C@@H](CC(=O)NCc3cc(F)cc(F)c3)CC[C@@H]21	3	18	1.1
C[C@@H]1CN([C@H](C)CO)C(=O)c2c(c3ccccc3n2C)-c2ccccc2CO[C@H]1CN(C)S(C)(=O)=O	-3	6	-5.8
CC(C)NC(=O)Nc1cccc2c1O[C@H](CN(C)CC1CCCCC1)[C@H](C)CN([C@H](C)CO)C2=O	6	-1	-1.5
C[C@@H]1CN([C@H](C)CO)C(=O)c2c(c3ccccc3n2C)-c2ccccc2CO[C@H]1CN(C)Cc1cccc(O)c1	4	3	5.6
CC1(C(=O)NS(=O)(=O)c2ccc(Cl)cc2)CCN1C(=O)c1ccco1 (stereo unspecified)	5	7	-2.9
O=C(C[C@@H]1C[C@@H]2c3cc(NC(=O)Nc4ccc(C(F)(F)F)cc4)ccc3O[C@@H]2[C@H](CO)O1)NC1CCCCC1	-7	-4	1.0
O=C(c1ccccn1)N1CC(=O)N2[C@@H](CO)[C@H](c3ccc(C#CC4CCCC4)cc3)[C@@H]2C1	2	-1	1.8
C[C@@H](O)C#Cc1ccc([C@H]2[C@@H](CO)N3CCCCN(CC4CC4)C[C@H]23)cc1	4	-1	-0.8
CN(C)CCCNC(=O)C[C@@H]1CC[C@H]2[C@@H](COc3ccc(NC(=O)C4CCC4)cc3C(=O)N2C)O1	4	-2	-1.4
Cc1ccc(S(=O)(=O)N(C)C[C@@H]2OCCCC[C@H](C)Oc3ccc(NS(=O)(=O)c4ccc(Cl)cc4)cc3C(=O)N([C@H](C)CO)C[C@@H]2C)cc1	1	9	-0.3
Cc1noc(C)c1S(=O)(=O)Nc1ccc2c(c1)C(=O)N([C@@H](C)CO)C[C@H](C)[C@H](CN(C)S(=O)(=O)c1cn(C)cn1)OCCCC[C@H](C)O2	1	1	-3.2
O=C(C[C@H]1C=C[C@@H](NS(=O)(=O)c2ccccc2)[C@@H](CO)O1)NCc1ccc(Cl)c(Cl)c1	-13&-31	-14&-32	2.9&-6.5
CS(=O)(=O)N1[C@H](C(=O)NCc2ccncc2)[C@@H](CO)[C@@H]2Cn3c(ccc(C4=CCCCC4)c3=O)[C@@H]21	2	-3	-1.1
Cc1ccc(S(=O)(=O)N[C@H]2CC[C@H](CCn3cc(C4CC4)nn3)O[C@@H]2CO)cc1	-4	0	-1.0
CC(C)NC(=O)N(C)C[C@@H]1Oc2c(NC(=O)c3ccncc3)cccc2C(=O)N([C@@H](C)CO)C[C@H]1C	-2	3	-2.4
C[C@@H]1CN([C@H](C)CO)S(=O)(=O)c2ccc(Br)cc2O[C@H]1CN(C)S(=O)(=O)c1ccccc1	-38	-67	4.0
O=S(=O)(N[C@@H]1CC[C@H](CCn2cc(-c3cccnc3)nn2)O[C@H]1CO)c1ccc(F)cc1	5	2	-4.2

Structures listed so far that have two or more sulfur atoms (7):
SMILES	Ecoli rRNA inh	Ecoli rRNA inh OD600	Ecoli rRNA inh RFP
C[C@H](CO)N1C[C@H](C)[C@@H](CN(C)S(=O)(=O)c2cccs2)Oc2ccc(NS(C)(=O)=O)cc2C1=O	4	15	-1.1
CCOC(=O)C1CSCCS(=O)(=O)N1Cc1cccc(Cl)c1 (stereo unspecified)	-5	2	12
C[C@H](CO)N1C[C@H](C)[C@H](CN(C)S(C)(=O)=O)OCCCC[C@H](C)Oc2ccc(NS(=O)(=O)c3cn(C)cn3)cc2C1=O	-1	5	-3.2
C[C@H](CO)N1C[C@H](C)[C@@H](CN(C)S(=O)(=O)c2cn(C)cn2)Oc2cc(C#Cc3ccccc3)ccc2S1(=O)=O	-3	-8	1.5
Cc1ccc(S(=O)(=O)N(C)C[C@@H]2OCCCC[C@H](C)Oc3ccc(NS(=O)(=O)c4ccc(Cl)cc4)cc3C(=O)N([C@H](C)CO)C[C@@H]2C)cc1	1	9	-0.3
Cc1noc(C)c1S(=O)(=O)Nc1ccc2c(c1)C(=O)N([C@@H](C)CO)C[C@H](C)[C@H](CN(C)S(=O)(=O)c1cn(C)cn1)OCCCC[C@H](C)O2	1	1	-3.2
C[C@@H]1CN([C@H](C)CO)S(=O)(=O)c2ccc(Br)cc2O[C@H]1CN(C)S(=O)(=O)c1ccccc1	-38	-67	4.0

Additional structures
SMILES	Ecoli rRNA inh	Ecoli rRNA inh OD600	Ecoli rRNA inh RFP
COc1ccc(NC(=O)C2c3ccccc3OCC(=O)N2Cc2ccc3c(c2)OCO3)cc1 (stereo unspecified)	-2	-9	-1.9
COc1ccc(NC(=O)N(C)C[C@@H]2Oc3ccc(NC(=O)Cc4cn(C)c5ccccc45)cc3C(=O)N([C@H](C)CO)C[C@H]2C)cc1	-6	3	-3.2
CO[C@H]1CC[C@@H]2CCOc3ccc(C#N)cc3C(=O)N(C)C[C@@H](C)C(=O)N(C)C[C@H]1O2	2	6	0.3
O=C(Nc1ccc2ccccc2c1)C(c1ccccc1)n1c(=O)c(-c2cc3ccccc3[nH]2)nc2ccccc21 (stereo unspecified)	0	1	1.0
CNC[C@@H]1Oc2ccc(N(C)C)cc2CC(=O)N([C@@H](C)CO)C[C@H]1C	5	6	-1.6
C[C@@H]1CN([C@@H](C)CO)C(=O)Cc2cc(NC(=O)CCCCCC(=O)Nc3ccccc3N)ccc2O[C@@H]1CN(C)Cc1ccccc1	-1	5	-1.4
Cc1nc2ccc(C(=O)N(C)Cc3ccco3)cn2c1N(C)C(=O)CCc1ccccc1	-13	-16	2.5
O=C(C[C@H]1CC[C@@H](NS(=O)(=O)c2ccccc2)[C@@H](CO)O1)NCc1ccncn1	-1	6	-2.1
CC(C)(O)C#Cc1ccc([C@@H]2[C@H]3CN(Cc4ccccc4F)CCCCN3[C@H]2CO)cc1	7	-1	0.1
COc1ccc(NC(=O)N[C@@H]2CC[C@H](CC(=O)NC3CCC3)O[C@H]2CO)cc1	1	-2	-1.3
CCCNC(=O)Nc1ccc2c(c1)OC[C@H](C)N(C(=O)C1CC1)C[C@@H](C)[C@H](OC)CN(C)C2=O	-1	-2	-1.4
CN(C)CC#Cc1ccc([C@H]2[C@@H](CO)N(C(=O)C3CCC3)[C@H]2C#N)cc1	2	1	0.2
CC(C)C[C@H]1CN(CCCC[C@H]2CNC(=O)C(=O)N2CC2CCCCC2)C(=O)C(=O)N1CCC1CCCCC1	23	10	3.0
COC(=O)C1=C(C)N(Cc2ccccc2C(F)(F)F)C(=NCc2ccc(OC)cc2)NC1c1ccc(F)cc1 (stereo unspecified)	-42	-76	-13
CN(C)C(=O)c1cccc(-c2ccc([C@H]3[C@H](CO)N4C(=O)CN(C(=O)CC5CC5)C[C@@H]34)cc2)c1	8	2	4.4
C[C@@H]1CN([C@H](C)CO)C(=O)c2cc(C#CCc3ccccc3)cnc2O[C@@H]1CN(C)Cc1ccc(C(=O)O)cc1	1	2	-2.0
C[C@@H]1CN([C@H](C)CO)C(=O)CCCn2nncc2CO[C@@H]1CN(C)C	-3	-3	-0.3
C[C@H](CO)N1C[C@H](C)[C@H](CN(C)Cc2ccc(C(=O)O)cc2)Oc2ccc(NC(=O)Cn3cnnn3)cc2C1=O	5	5	0.0
O=C(O)C[C@H]1CC[C@H]2[C@@H](COC[C@H](O)CN2S(=O)(=O)c2ccc(F)cc2)O1	3	9	-5.0
COCC(=O)N1C[C@@H]2[C@H](c3ccccc31)[C@H](CO)N2Cc1ccc(OC)cc1	4	1	-2.1
CC(C)NC(=O)CN1CCN(C(c2ccnc3ccccc23)c2nnnn2-c2ccc3c(c2)OCCO3)CC1 (stereo unspecified)	8	5	9.0
CCCCn1nnnc1C1(C)CCC(=O)N1CCc1ccccc1F (stereo unspecified)	1	5	-3.7
COc1ccc2c3c(n(C)c2c1)[C@H](CO)N(Cc1ccccc1OC)CC31CN(C(=O)C2CC2)C1	-2	5	-1.0
C[C@H](CO)N1C[C@H](C)[C@@H](CN(C)Cc2ccc(C(F)(F)F)cc2)Oc2c(NC(=O)C3CCOCC3)cccc2C1=O	-1	-3	1.0
COc1ccc(S(=O)(=O)Nc2ccc3c(c2)C(=O)N([C@@H](C)CO)C[C@@H](C)[C@H](CN(C)C(=O)Nc2c(C)noc2C)OCCCC[C@H](C)O3)cc1	-3	4	3.0
COCCNC(=O)C[C@H]1CC[C@H]2[C@@H](COc3ccc(NC(=O)CC(F)(F)F)cc3C(=O)N2C)O1	4	13	-2.4
CCCNC(=O)N[C@@H]1CC[C@@H](CCNS(=O)(=O)c2cccc(F)c2)O[C@@H]1CO	1	-4	-1.8
C[C@@H]1CN([C@H](C)CO)C(=O)c2cccc(NC(=O)C3CCCCC3)c2O[C@@H]1CN(C)Cc1ccc(Cl)c(Cl)c1	-9	-11	-1.2
O=C(c1ccncc1)N1CC2(C1)[C@@H](c1ccccc1)[C@@H](CO)N2C(=O)c1ccncc1	1	7	-3.0
COCc1cccc(-c2csc(C(NC(C)=O)c3ccc(F)c(F)c3)n2)c1 (stereo unspecified)	-12	-37	-5.0
Cc1c(C(=O)NCc2cccc(C(F)(F)F)c2)sc(=O)n1Cc1ccc(F)cc1	-3	-5	-8.1
C[C@H](O)C#Cc1ccc([C@@H]2[C@H]3CN(C(=O)c4cccc(F)c4)CCCCN3[C@H]2CO)cc1	2	12	-2.7
CCOC(=O)C1(C)CCCN(C(=O)c2cc(C)on2)C1 (stereo unspecified)	18	25	-1.6
COCC(=O)N1[C@H](C(=O)N2CCCCC2)[C@@H](CO)[C@@H]2Cn3c(ccc(C4=CCCC4)c3=O)[C@@H]21	1	9	-5.2
COc1ccccc1C(=O)Nc1ccc2c(c1)C(=O)N(C)C[C@@H](OC)[C@@H](C)CN(C(C)=O)[C@H](C)CO2	1	13	-0.3
CCN(Cc1ccccc1)c1cc2c(c3c1ccn3C)C1CCC2O1 (stereo unspecified)	-9	-28	-13
O=C(C[C@H]1C=C[C@@H](NC(=O)c2ccccc2)[C@H](CO)O1)NCc1ccc(Oc2ccccc2)cc1	-1	-3	-0.5
